Screens from PubChem.
Efa HMGR inh: E. faecalis class II HMG-CoA reductase inhibition; inhibition, % at 10 µM; 190,000 tested, 0.41% active; purified E. faecalis HMGR, NADPH absorbance 340 nm kinetic;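 active = inhibition above a set limit, the median over all tested compounds plus 3 SD, cut at about 9.5% in these data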;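 note: enzyme runs in reverse so mevalonate oxidation gives rising NADPH absorbance; 0% = complete reaction with DMSO and 100% = background rate lacking mevalonate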
G6PDH counter: counter-screen for G6PDH assay hits: L. mesenteroides G6PDH inhibition; Purified L. mesenteroides G6PDH, diaphorase/resazurin coupled fluorescence, 45 min; inhibition, % at 5 µM; 200,000 tested, 0.12% active; AID 1020; in the data active = inhibition above about 50%
Hsp70 act: switches on Hsp70 transcription; activation, % at 10 µM; AID 1203; 200,000 tested, 0.04% active; HeLa Hsp70 promoter luciferase reporter, luminescence; scaled: vehicle 0, proteasome-inhibitor control 100%;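 active = activation above the mean across all tested compounds plus 3 SD, cutoff set per campaign, cut at about 5.5% in these data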;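 note: 100% = MG132 at 30 µM as the positive control and 0% = DMSO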
Redox H2O2 prof: compounds producing H2O2 with reducing agent – biochemical, NIH compound library profiling, artefact control for MLSCN library redox annotation, primary screen; activation, % at 10 µM; DTT-dependent redox cycling H2O2, phenol red/HRP absorbance; 100% = 100 µM peroxide control, 0% = buffer; 200,000 tested, 0.03% active;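 active = activation of at least 50% relative to the plate's high and low controls in the primary single-dose screen; inactive = activation below 50%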;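 note: compound incubated with DTT at 0.8 mM final as the reducing agent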
* = called active by the depositor; nt = not tested or not shown; & = joins results of further samples.

Order of values – Efa HMGR inh | G6PDH counter | Hsp70 act | Redox H2O2 prof
> CN(C)C(=O)Oc1ccc[n+](C)c1
    -4 | 14 | -0.3 | 0.2
> O=C(N/N=C/c1ccc2c(c1)OCO2)c1ccc(Br)o1
    -6 | 0 | 0.0 | 0.3
> CN1CCN(CC(=O)N2c3ccccc3C(=O)Nc3cccnc32)CC1
    -1 | -5 | -0.2 | 0.3
> CN(C)CCC(c1ccc(Br)cc1)c1ccccn1 (configuration not stated)
    0 | 13 | 0.4 | 0.0
> Fc1ccc(C(c2ccc(F)cc2)N2CCN(C/C=C/c3ccccc3)CC2)cc1
    -9 | 12 | -0.3 | 2.0
> Fc1ccccc1/C=N/Nc1ncnc2ccccc12
    6 | 2 | 0.3 | -0.2
> CC[C@H]1CN2CCc3cc(OC)c(OC)cc3[C@@H]2C[C@@H]1C[C@H]1NCCc2cc(OC)c(OC)cc21
    -2 | 4 | -0.6 | 0.4
> O=C(Nc1ccccc1)C(=O)Nc1ccccn1
    -2 | 6 | -0.3 | 1.9
> CC(=O)OC[C@H]1O[C@@H](n2ncc(=O)[nH]c2=O)[C@H](OC(C)=O)[C@@H]1OC(C)=O
    -5 | 14 | -0.2 | 4.0
> O=c1[nH]cc(F)c(=O)[nH]1
    -4 | 14 | -0.2 | -0.4

Taken from above:
`CC(=O)OC[C@H]1O[C@@H](n2ncc(=O)[nH]c2=O)[C@H](OC(C)=O)[C@@H]1OC(C)=O` | Redox H2O2 prof: 4.0
`CN(C)CCC(c1ccc(Br)cc1)c1ccccn1` (configuration not stated) | Hsp70 act: 0.4
`Fc1ccccc1/C=N/Nc1ncnc2ccccc12` | G6PDH counter: 2
`CN(C)C(=O)Oc1ccc[n+](C)c1` | Efa HMGR inh: -4
`O=C(Nc1ccccc1)C(=O)Nc1ccccn1` | Hsp70 act: -0.3
`Fc1ccc(C(c2ccc(F)cc2)N2CCN(C/C=C/c3ccccc3)CC2)cc1` | Redox H2O2 prof: 2.0
`O=C(N/N=C/c1ccc2c(c1)OCO2)c1ccc(Br)o1` | Redox H2O2 prof: 0.3

Following part:
Order of values – Efa HMGR inh | G6PDH counter | Hsp70 act | Redox H2O2 prof
> c1ccc(-c2ccc(-c3nc(-c4ccccn4)no3)cc2)cc1
    -4 | -1 | -0.8 | 0.2
> CC(C)(C)c1ccc(NC(=O)c2ccccc2)c([N+](=O)[O-])c1
    -4 | 14 | -0.1 | 0.2
> CCN(CC)CC(=O)Nc1c(C)cccc1C
    -2&-9 | 7 | -0.3&-0.2 | 0.1&4.4
> CC1=NS(=O)(=O)c2cc(Cl)ccc2N1
    -2 | 19 | -0.3 | -0.7
> CN(C)c1ccc(/C=N/NC(=O)c2ccccc2)cc1
    -2 | 0 | 0.1 | -0.3
> COc1cccc(N/C=C/C(=O)c2ccc(Br)cc2)c1
    nt | nt | 0.2 | -0.6
> Cc1ccc(/C=N/Nc2ccc(C(=O)O)cc2)s1
    -3 | 8 | -0.4 | 0.2

Shown as tab-separated lines: 4 of the compounds above
structure	Efa HMGR inh	G6PDH counter	Hsp70 act	Redox H2O2 prof
CC1=NS(=O)(=O)c2cc(Cl)ccc2N1	-2	19	-0.3	-0.7
O=c1[nH]cc(F)c(=O)[nH]1	-4	14	-0.2	-0.4
CC(C)(C)c1ccc(NC(=O)c2ccccc2)c([N+](=O)[O-])c1	-4	14	-0.1	0.2
CN(C)C(=O)Oc1ccc[n+](C)c1	-4	14	-0.3	0.2

Only part of the results is shown, so the mix of outcomes need not match the whole.
